Screening data deposited in PubChem BioAssay by Fisher Drug Discovery Resource Center.
NPYLR7 agonist: activates Aedes aegypti NPYLR7 receptor | HEK293T NPYLR7/Galpha15, GCaMP6s calcium fluorescence | activation, % at 10 µM | hit rate 0.15% among 270,000; in the data active = activation above about 40%;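 also: 0% = vehicle and 100% = reference agonist at the receptor; some compounds past the cut are filed as inactive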
NPYLR7 agonist max-min: second read-out of NPYLR7 agonist, no call of its own (marks repeat the call); activation, %; measured here: Max-Min RFU normalised activation; some inactives read as strong as hits;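 span of the calcium signal over five minutes; 0% = vehicle and 100% = native peptide agonist; compound fluorescence can raise it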
An asterisk follows results filed as active; & = joins results of further samples. This is a subset; the hit share may differ from the screen's.

SMILES	NPYLR7 agonist	NPYLR7 agonist max-min
O=C(NCC1CCCCO1)c1ccc2oc(CCCc3ccccc3)nc2c1 (configuration not stated)	0	-4
COc1cc(OC)cc(-c2n[nH]c(=S)n2-c2ccc(C)cc2)c1	9	6
CCOc1ccccc1OCC(=O)Nc1cc(C(N)=O)[nH]n1	0	0
O=C(c1ccc2c(c1)OCO2)C1CCCN(C(=O)NCc2ccccc2)C1 (configuration not stated)	2	1
COc1c(Cl)cc(C(=O)Nc2c(C(C)C)n(C)n(-c3ccccc3)c2=O)cc1Cl	3	0
CS(=O)(=O)c1ccc(C(=O)NCc2cnn3ccccc23)cc1	9	6
OCCN1CCN(c2cc(-c3ccc4[nH]ccc4c3)nc3ccnn23)CC1	-5	-10
Cc1cc(=O)[nH]c(NN=Cc2cc([N+](=O)[O-])ccc2O)n1	-3	-11
O=C1OC(c2ccc(Cl)cc2)=NC1=Cc1ccc(F)cc1	0	-5
COCCOC(=O)C1=C(C)NC(C)=C(C(=O)OC(C)C)C1c1cccc([N+](=O)[O-])c1 (configuration not stated)	-5&-17&0&3&-1	-10&-28&-4&-12&-4
O=C(Nc1ccc(N2CCc3ccccc3C2)c(C(=O)NCCc2ccccc2)c1)c1ccc(F)cc1	5	17
O=C(O)c1ccccc1C1CCN(C(=O)Cc2c[nH]c3ccccc23)C1 (configuration not stated)	15	12
CCN1CC(CN(C)c2nc(C)nc3sccc23)CC1=O (configuration not stated)	1	2
O=C(Nc1ccccn1)c1occc1-c1ccccc1	6	1
O=C(Nc1ccc(Br)cc1)c1cc2ccccc2oc1=O	-4	-9
Cc1ccc(C2(O)CCN(C(=O)c3ccc4cc[nH]c4c3)CC2)nc1	9	3
CCn1c(SCC(=O)N(C)c2ccccc2)nc2c([nH]c3ccccc32)c1=O	-4	-4
C=CCn1cnc2c(nnn2C)c1=O	3	7
Oc1ccccc1-c1nc(-c2ccccc2)no1	0	0
CSc1sc(C(C)=O)c(N)c1S(=O)(=O)c1ccccc1	-5	-4
CCCN(C(=O)CSC1=Nc2ccccc2CS1)C1CCS(=O)(=O)C1 (configuration not stated)	3	2
COc1ccc(C(=O)N2CCN(c3ccc(NC(=O)c4ccc(C)cc4)cn3)CC2)cc1F	-4	0
CCOC(=O)C1=C(C)Nc2nc(-c3cccs3)nn2C1c1sccc1C (configuration not stated)	16	10
CN(C)CC1(O)CCCN(C(=O)COCc2nc3ccc(F)cc3[nH]2)CC1 (configuration not stated)	4	1
COc1ccccc1C(=O)Nc1nnc(-c2ccc(F)cc2)s1	-8	-14

(listing goes on)
SMILES	NPYLR7 agonist	NPYLR7 agonist max-min
COc1cc(-c2ccnc(N3CCN(C(=O)c4cccnc4Sc4ccc(C)cc4)CC3)n2)cc(OC)c1OC	7	0
CCOC(=O)CCc1c(C)nc2ncnn2c1N1CCN(C(=O)c2cc(C)on2)CC1	26	16
Cc1ccsc1CN(C(=O)c1ccc(=O)n(C)n1)c1ccc(F)c(Cl)c1	1	11
Cc1cccc(CN2CCC(N3CCC(C(=O)NCC(O)CO)CC3)CC2)n1 (configuration not stated)	6	4
O=C(CC(c1cccc(O)c1)c1ccccc1Cl)NCc1ccncc1 (configuration not stated)	-21	-22
CCOC(=O)C1CCCN(C(=O)c2cc(-c3ccc(OC)cc3)nc3cc(C(C)(C)C)nn23)C1 (configuration not stated)	11	27
CC(C)c1nn(-c2ccc(Cl)c(Cl)c2)c(C(C)C)c1C(=O)O	6	16
CC(NC(=O)Cc1ccccc1)c1ccc(Br)cc1 (configuration not stated)	-9	-11
O=C(O)c1cccn(Cc2ccc(F)cc2)c1=O	0	-2
Cc1ccc2sc(NCCCN3CCOCC3)nc2c1C	0	-1
O=C(OCC(=O)N1CCc2ccccc21)c1cccc(C(F)(F)F)c1	-2	-3
CN(Cc1cnccn1)Cc1nc(-c2cccs2)no1	13	0
COc1ccc(C2CC(=O)C3C(=Nc4ccccc4NC3c3ccccc3C(F)(F)F)C2)cc1OC (configuration not stated)	-8	-16
COc1cccc(NC(=O)C2(C)Cc3ccccc3C(=O)O2)c1 (configuration not stated)	-9	-10
O=C(NCc1ccccn1)c1c[nH]c2ccccc12	26	15
COc1ccc(CSc2n[nH]c(=O)n2C)c(Cl)c1	3	1
CN(Cc1ccc2c(c1)OCCO2)C(=O)c1cc2c([nH]c1=O)CCCC2=O	5	4
CCOC(=O)c1nn(-c2ccccc2C)c(=O)cc1N1CCN(c2cccc(C(F)(F)F)c2)CC1	6	1
COc1cc2c(cc1C1Nc3ccccc3C(=O)N1C)OC(C)C2 (configuration not stated)	-1&0	-2&-2
Cc1occc1C(=O)NCC(CO)Cc1cccs1 (configuration not stated)	1	0
CCc1sc(C=O)cc1COc1ccccc1Cl	-12	-17
CC(=O)N1N=C(c2ccccc2)CC1c1ccc(N(C)C)cc1 (configuration not stated)	-9	-14
Cc1ccc(NC(=O)N2CCC3(CC2)SCCN3C(=O)CC(C)C)cc1	28	28
COc1ccc(CN2CCN(Cc3c[nH]c4ccccc34)CC2CCO)c(F)c1 (configuration not stated)	11	3
Cn1cccc1C(O)CNC(=O)NC1CCN(c2ccccc2)CC1 (configuration not stated)	1	16

The list goes on:
SMILES	NPYLR7 agonist	NPYLR7 agonist max-min
N#CC1(NC(=O)c2cnc(-c3ccc4c(c3)OCO4)s2)CCCC1	-21	-23
COc1ccc(C(=O)NCC(=O)N=Nc2c(O)[nH]c3ccccc23)cc1	-3	-9
CCN(CC)C(=O)C1CCN(c2nc3nonc3nc2NC2CC2)CC1	-5	-7
COc1cccc(C(=O)N/N=c2\oc3ccc(Br)cc3cc2-c2nc3ccccc3[nH]2)c1	-5	-12
O=C(NCCC1=CCCCC1)C1CCC(=O)N(Cc2ccccn2)C1 (configuration not stated)	17	9
O=C(NCC1Cc2cc(F)ccc2O1)c1ccc2ccccc2c1 (configuration not stated)	-13	2
COc1cc(Nc2nccn3c(-c4ccc(C)cc4)cnc23)cc(OC)c1OC	-2	-7
CC1=C(C(=O)c2ccc(Cl)cc2)C(c2ccccc2F)NC(=O)N1 (configuration not stated)	0	-1
COCCN(CC(=O)Nc1cc(-c2ccccc2)nn1-c1ccccc1)C(=O)/C=C/c1ccc([N+](=O)[O-])cc1	1	9
CCC(C(=O)N1CCC[C@@H]1C(=O)NCCCNC(C)=O)c1ccccc1 (some centres not stated)	6	10
CC(C)c1ccc(C(NC(=O)c2cnn(C)c2)C(C)C)cc1 (configuration not stated)	8&14	5&13
CN(Cc1ccn[nH]1)C(=O)CCC(=O)NC1CCCC1	2	-1
CN(Cc1ccc(Cl)s1)Cn1nc(-c2cccnc2)n(C2CC2)c1=S	5	4
CCCC(=O)OCC(O)CNC(c1nc(-c2ccc(Br)cc2)no1)C(C)C (configuration not stated)	22	25
CCN(C(=O)c1ccccc1N1CCC(NC(=O)COC)CC1)C1CCCCC1	20	15
COC(C)(OC)c1ccc(C#N)c(SCc2csc(Cc3ccc4c(c3)OCO4)n2)n1	4	5
C/C=C/COC(=O)C1=C(C)NC(=O)NC1c1ccc(N(C)C)cc1 (configuration not stated)	-4	-6
CC(C)(C)c1cc2nc(C(=O)NCc3cccc(C(F)(F)F)c3)cc(-c3ccccc3F)n2n1	18	14
C=CCN=C1NN=C(c2ccc3c(c2)-c2ccccc2C3)CS1	3	3
O=C(NC1CCN(c2c(F)cccc2F)C1=O)C1CC1c1ccco1 (configuration not stated)	3	1
Cc1cc(S(=O)(=O)N(C)C)cc(NC(=O)CCNC(=O)C23CC4CC(CC(C4)C2)C3)c1C	-3	-5
COc1ccc(C(=O)N2CCN(c3nc(-c4ccc(C)cc4)nc(C)c3C(C)C)CC2)c(OC)c1	-8	7
CC1CCN(C(=O)Cn2nc(C3CC3)c3cnn(-c4cccc(Cl)c4)c3c2=O)CC1	3	-2
CN(C(=O)c1sccc1OC(F)F)c1nc2ccccc2s1	3	1
CCN1CCN(c2c(CN(CCC(C)C)C(=O)C3CCCC3)c(C)nn2-c2ccccc2)CC1	-3	11

A draw from above in order of heavy-atom count, low to high.
SMILES	NPYLR7 agonist	NPYLR7 agonist max-min
CC(C)c1ccc(C(NC(=O)c2cnn(C)c2)C(C)C)cc1 (configuration not stated)	8&14	5&13
CCC(C(=O)N1CCC[C@@H]1C(=O)NCCCNC(C)=O)c1ccccc1 (some centres not stated)	6	10
CC1CCN(C(=O)Cn2nc(C3CC3)c3cnn(-c4cccc(Cl)c4)c3c2=O)CC1	3	-2
COc1ccc(C(=O)N2CCN(c3nc(-c4ccc(C)cc4)nc(C)c3C(C)C)CC2)c(OC)c1	-8	7

More records.
SMILES	NPYLR7 agonist	NPYLR7 agonist max-min
CCOC(=O)c1sc2nc3c(cc2c1NC(=O)N1CCOCC1)COC(C)(C)C3	-14	-23
Cc1sc2nc(C(C)Sc3nnc(NC4CC4)s3)[nH]c(=O)c2c1C (configuration not stated)	0	6
CC(C)c1ccc(C(C)NS(=O)(=O)c2cccc(S(=O)(=O)N(C)C)c2)cc1 (configuration not stated)	6	5
COc1cc(C)sc1C(=O)N1CCCC2(CC1)CNC(=O)O2 (configuration not stated)	-1	20
O=C1C(=Cc2ccc3c(c2)OCO3)SC(=S)N1c1ccc2c(c1)OCCO2	-8	-13
Cn1c(Cl)cnc1CN(Cc1ccccc1O)C1CCCC1	-23	-24
O=C1N[C@H]2[C@H](CS(=O)(=O)[C@H]2CCCCC(=O)OCc2ccc(Cl)cc2Cl)N1	4	11
O=C(NC1CCCCC1)c1cc(NC(=O)C2CCCCC2)ccc1N1CCN(Cc2ccccc2)CC1	16	21
CC(=O)Nc1ccc(NC(=O)c2c(C)c(C)nn(C)c2=O)c(Cl)c1	9	6
COc1ccc(Cl)cc1N1C(=O)CSC1c1ccccc1F (configuration not stated)	-2	-9
COc1ccc(OC)c(-n2c(C)c(C)n3c4c(=O)n(C)c(=O)n(C)c4nc23)c1	14	6
Cc1ccc(C)n1-c1ccsc1C(=O)N1CC=C(c2ccc(O)cc2)CC1	5	1
C=CCn1ccnc1-c1ccccc1OCC	22	11
N#Cc1nc(NC(=O)c2ccc(N3CCCC3)c(F)c2)[nH]c1C#N	8	2
CS(=O)(=O)c1ccc(CN2CCN3C(C(=O)N4CCOCC4)=COC3=NC2=O)cc1	3	5
CN(C)c1ncccc1CNC(=O)C1(c2cccs2)CC1(C)C (configuration not stated)	-2	0
Cc1cc(C(=O)N2CCC(n3nc(C(C)C)cc3C(C)C)CC2)cc(Cl)n1	3	14
O=c1[nH]c(CN2CCCc3ccccc32)nc2sc3c(c12)CCC3	5	0
COCCNC(=O)CCCn1ncn2c(cc3occc32)c1=O	6	4
O=c1cc[nH]c(=S)[nH]1	-15&3	-18&-5
O=C(Nn1cnc2c(cnn2-c2ccccc2)c1=O)c1cccs1	10	9
CCOC(=O)c1nc2ccccc2nc1N1CCCN(C(=O)c2cccnc2Cl)CC1	4	1
O=C(c1cc2n(n1)CCN(Cc1ccc(Cl)c(Cl)c1)C2=O)N1CCC(N2CCCCC2)CC1	12	4
CC1(C(=O)NS(=O)(=O)c2ccc(F)cc2F)CCN1C(=O)c1ccccc1 (configuration not stated)	-2	-5
CCn1c(C2CCCNC2)nn(CCSC(C)C)c1=O (configuration not stated)	0	-4

By substructure: the entries above with an aryl thioether with sulfur outside any ring
SMILES	NPYLR7 agonist	NPYLR7 agonist max-min
CCn1c(SCC(=O)N(C)c2ccccc2)nc2c([nH]c3ccccc32)c1=O	-4	-4
CSc1sc(C(C)=O)c(N)c1S(=O)(=O)c1ccccc1	-5	-4
COc1cc(-c2ccnc(N3CCN(C(=O)c4cccnc4Sc4ccc(C)cc4)CC3)n2)cc(OC)c1OC	7	0
COc1ccc(CSc2n[nH]c(=O)n2C)c(Cl)c1	3	1
COC(C)(OC)c1ccc(C#N)c(SCc2csc(Cc3ccc4c(c3)OCO4)n2)n1	4	5
Cc1sc2nc(C(C)Sc3nnc(NC4CC4)s3)[nH]c(=O)c2c1C (configuration not stated)	0	6

The list continues.
SMILES	NPYLR7 agonist	NPYLR7 agonist max-min
O=C(c1cc(-c2ccccc2)n[nH]1)N1CCc2c([nH]c3ccccc23)C1c1ccccn1 (configuration not stated)	-5	-15
c1ncc(CC2CCNCC2)[nH]1	-14	-18
c1ccc(-c2nnc(SCc3cccnc3)o2)cc1	-4	-6
O=C(c1ccco1)N1CCCC(C(=O)N2CCN(c3ccccc3O)CC2)C1 (configuration not stated)	9	5
CC1CN(CCc2ccccc2)c2nc3c(c(=O)n(Cc4cccc5ccccc45)c(=O)n3C)n2C1 (configuration not stated)	2	2
CCOc1c(CC)cnc2c1c(=O)n(Cc1cc(OC)cc(OC)c1)c(=O)n2C	-2	-3
COc1cccc(-c2nc3ccc(C)cn3c2NCc2ccccc2)c1	8	7
CC1Cc2cc(-c3cc(CNC(=O)C4CCN(S(C)(=O)=O)CC4)no3)ccc2O1 (configuration not stated)	-1	-3
CC1(Cc2ccc(Cl)cc2)C(=O)Nc2ccc(S(=O)(=O)NC3CCCCC3)cc21 (configuration not stated)	0	-4
CN1C(=S)N(c2cccc(F)c2)C(=O)/C1=C\c1cccc(OCCO)c1	9	7
COc1cccc(-c2cccc(-c3ccc(NC(=O)c4c(-c5c(Cl)cccc5Cl)noc4C)cc3)n2)c1	3	0
CCOC(=O)C1(Cc2ccccc2C(F)(F)F)CCN(C(C)CSC)CC1 (configuration not stated)	-3	-10
COCCNC(=O)[C@@]1(OCc2cccc(C(F)(F)F)c2)CC(OCc2ccc(C#N)cc2)[C@@H]2OC(C)(C)O[C@@H]2C1 (some centres not stated)	4	4
CC(Sc1nccn1C)C(=O)Nc1cccc(S(=O)(=O)N2CCCCC2)c1 (configuration not stated)	2	3
O=C(Nc1nnc(-c2ccccc2Cl)s1)c1ccco1	-6	-7
COc1cc(Cn2cnc3c(nnn3C)c2=O)cc(OC)c1	0	3
CCN(C1CCCCC1)S(=O)(=O)c1ccccc1C#N	5	6
COc1cccc(CC(=O)N2CCC3(CC2)OCc2cccc(OC)c2O3)c1	1	-9

Some of the entries so far, bar-delimited:
SMILES | NPYLR7 agonist | NPYLR7 agonist max-min
COc1cc(Cn2cnc3c(nnn3C)c2=O)cc(OC)c1 | 0 | 3
CCN(C1CCCCC1)S(=O)(=O)c1ccccc1C#N | 5 | 6
